Screens deposited in PubChem BioAssay by several laboratories.
PrP 5UTR inh: suppresses PrP 5' UTR mRNA reporter expression | 0.35% of 340,000 active | inhibition, % (concentration not given with the values) | cell-based PrP 5' UTR mRNA reporter, plate reader | AID 488862;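 active means every replicate at 50% or more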;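 further: 0 = median of the neutral control wells; tested in H4 reporter cells; numbers are from one replicate; inactives centre near -14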
RN4220 kill: kills Staphylococcus aureus RN4220. S. aureus RN4220 growth, OD600, 16 h. inhibition, % (test concentration not listed). 0.33% of 330,000 active. AID 1259311;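 active means z-score of -3 or lower and OD600 up to 0.18 on both plates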;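 further: plate controls were untreated cells for no effect and reference antibiotic for full effect; stock transfer was 100 nL into about 80 µL; one replicate is shown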
BJeLR lethal: BJeLR cell viability loss; AID 1554; 0.17% of 300,000 active; inhibition, % (test concentration not listed); BJeLR (HRASV12) viability, CellTiter-Glo ATP luminescence, 48 h; reference of the scale not given here;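 active means replicate mean above 50%; inconclusive means above 50% but judged a plate artefact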;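 further: 50 nL library stock added to about 25 µL; numbers are from one replicate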
Mtb hypoxia inh: reduces hypoxia-regulated biosensor signal in M. tuberculosis; M. tuberculosis hypoxia-regulated fluorescent reporter, fluorescence; fluorescence inhibition, % (no concentration beside the values); 0.1% of 300,000 active;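 active means 35 to 45% if threefold the growth effect, above 45% if 1.5-fold the growth effect; inactive means the rest, general growth blockers included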;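 further: wells of about 50 µL received 100 nL stock; 0% = vehicle wells and 100% = reference inhibitor wells; whole bacteria with a GFP reporter of the hypoxia response; strong numbers were not always called active; many hits fall short of the cut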
Autofluor counter: flagged as autofluorescent in microsphere protease counterscreen | compound autofluorescence counterscreen, microsphere flow cytometry; hits give high values | fluorescence intensity (concentration not given with the values) | 3.1% of 360,000 active;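 active means at least 3 SD above the mean of all compounds, about 16000 in these data; inconclusive means too few beads counted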;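 further: 100 nL of 1 mM stock went into each well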
Sa ugtP lethal: growth inhibition of S. aureus ugtP deletion strain. S. aureus RN4220 ugtP deletion, OD600 growth, 16 h; some inactives read as strong as hits. growth inhibition, % (concentration not given with the values). 0.54% of 330,000 active;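 active means z-score under -3 and OD600 up to 0.15 on both plates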;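 further: plate controls were untreated wells for no effect and antibiotic for full effect; wells of about 80 µL received 100 nL stock; the first replicate is given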
Mtb hypoxia inh growth: also measured in Mtb hypoxia inh; calls as there; growth inhibition, %; measured here: M. tuberculosis growth (absorbance);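 0% = vehicle and 100% = reference antibiotic; read after six days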
Starred values were filed as active, the others as inactive.

Screening CCOc1ccc(NC(=O)CCNS(=O)(=O)c2ccc3c(c2)c(=O)n(C)c(=O)n3C)cc1 returned PrP 5UTR inh -8.3, RN4220 kill 5.2, BJeLR lethal 3.4, Mtb hypoxia inh 7.4, Autofluor counter 10912, Sa ugtP lethal 4.0 and Mtb hypoxia inh growth 10.7.
For COc1ccc(NC(=O)c2cccs2)cn1 the results were PrP 5UTR inh -21.8, RN4220 kill 1.4, BJeLR lethal -4.9, Mtb hypoxia inh 6.9, Autofluor counter 4577, Sa ugtP lethal 3.4 and Mtb hypoxia inh growth 11.6.
NS(=O)(=O)c1ccc2c(c1)C1C=CCC1C(C1CC=CCC1)N2 (stereo not given) was read as PrP 5UTR inh 4.8, RN4220 kill 3.2, BJeLR lethal 1.2, Mtb hypoxia inh -4.8, Autofluor counter 4099, Sa ugtP lethal -14.8 and Mtb hypoxia inh growth 0.2.
`Cc1ccc(NCc2nnc(SCCN3CCCCC3)n2CC2CCCO2)c(C)c1` (stereo not given) gave PrP 5UTR inh -5.1, RN4220 kill 6.6, BJeLR lethal -0.9, Mtb hypoxia inh 6.1, Autofluor counter 6713, Sa ugtP lethal 14.2 and Mtb hypoxia inh growth 0.6.
`COc1cc(C(=O)Nc2nc3ccccc3s2)ccc1OCc1c(C)noc1C` gave RN4220 kill 10.9, BJeLR lethal 4.9, Mtb hypoxia inh -1.1, Autofluor counter 9823, Sa ugtP lethal -0.4 and Mtb hypoxia inh growth -2.7.
`Cc1ccc(NC(=S)Nn2cnnc2)cc1` gave PrP 5UTR inh -12.9, RN4220 kill 1.6, BJeLR lethal -4.4, Mtb hypoxia inh 17.3, Autofluor counter 2644, Sa ugtP lethal 1.9 and Mtb hypoxia inh growth -11.6.
CCCCN1C2=C(C(=O)CC(C)(C)C2)C(c2ccccc2)C2=C1c1ccccc1C2=O (stereo not given) was read as PrP 5UTR inh 6.8, RN4220 kill 10.7, BJeLR lethal 6.0, Mtb hypoxia inh -3.2, Sa ugtP lethal 3.4 and Mtb hypoxia inh growth 1.0.
Screening CCN1C(=O)/C(=C2\SC(=S)N(CCCOC)C2=O)c2ccccc21 returned PrP 5UTR inh -17.7, RN4220 kill 6.9, BJeLR lethal 0.0, Autofluor counter 3551 and Sa ugtP lethal -6.4.
O=C(Cc1ccccc1)NN=Cc1cccn1-c1ccc([N+](=O)[O-])cc1 was read as RN4220 kill 5.0, Mtb hypoxia inh 4.6, Sa ugtP lethal -3.1 and Mtb hypoxia inh growth 9.6.
COC(=O)c1sccc1NN=Cc1ccc(OC)c(OC)c1OC was read as RN4220 kill 2.8, Mtb hypoxia inh 1.7, Sa ugtP lethal -2.2 and Mtb hypoxia inh growth 0.6.
For Cc1c(Cl)cnc(NC(=O)CSc2nnnn2C)c1Cl the results were PrP 5UTR inh -12.2, RN4220 kill 2.4, Mtb hypoxia inh 13.2, Autofluor counter inconclusive, Sa ugtP lethal 3.9 and Mtb hypoxia inh growth 3.9.
`COC(=O)c1cc(S(=O)(=O)N2c3ccccc3CC2C)cn1C` (stereo not given) gave PrP 5UTR inh -11.0, RN4220 kill 6.0, BJeLR lethal 12.8, Mtb hypoxia inh 12.1, Autofluor counter 5997, Sa ugtP lethal -2.0 and Mtb hypoxia inh growth 2.9.
`CCCCC(CC)CNC(=O)C1C2C=CC(C2)C1C(=O)O` (stereo not given) gave PrP 5UTR inh -4.1, RN4220 kill 17.3, BJeLR lethal -13.8, Mtb hypoxia inh 8.5, Autofluor counter 11444, Sa ugtP lethal -1.9 and Mtb hypoxia inh growth 9.7.
Screening O=C(c1ccc2c(c1)OCO2)N(c1ccc(F)cc1)C1C=CS(=O)(=O)C1 (stereo not given) returned PrP 5UTR inh -55.9, RN4220 kill 7.3, BJeLR lethal -0.7, Mtb hypoxia inh 2.1, Autofluor counter 13618, Sa ugtP lethal -1.4 and Mtb hypoxia inh growth -1.1.
`CCOC(=O)c1cc(-c2ccccc2)nn1CC1CC(c2ccc(OC)cc2)=NO1` (stereo not given) gave PrP 5UTR inh 3.2, RN4220 kill 2.2, Mtb hypoxia inh 6.4, Autofluor counter 4027, Sa ugtP lethal 0.2 and Mtb hypoxia inh growth -2.3.
`O=C1c2ccccc2C(=O)N1CCCCSc1nnnn1-c1ccccc1` gave PrP 5UTR inh -12.8, RN4220 kill -12.6, BJeLR lethal 0.2, Mtb hypoxia inh 8.0, Autofluor counter 3451, Sa ugtP lethal -0.8 and Mtb hypoxia inh growth 11.8.
Screening COC(=O)c1[nH]c2ccccc2c1NC(=O)CN1CCN(c2cccc(Cl)c2)CC1 returned PrP 5UTR inh -6.2, RN4220 kill -2.1, BJeLR lethal 8.5, Autofluor counter 2828 and Sa ugtP lethal -18.9.
For O=[N+]([O-])c1ccc(NCCc2ccccc2)c(Br)c1 the results were PrP 5UTR inh -4.9, BJeLR lethal -6.2 and Autofluor counter 3260.
For O=C(CN1CCN(Cc2ccccc2)CC1)N/N=C/c1ccco1 the results were PrP 5UTR inh -9.1, BJeLR lethal 4.0 and Autofluor counter 3913.
Screening Clc1ccc(-c2nnc(COc3ncnc4ccccc34)o2)cc1 returned PrP 5UTR inh -0.6, RN4220 kill 2.0, BJeLR lethal 31.4, Mtb hypoxia inh -1.8, Autofluor counter 4279, Sa ugtP lethal 6.3 and Mtb hypoxia inh growth 8.1.
Screening Cc1ccccc1OCC(=O)N(Cc1ccc(N(C)C)cc1)C1CCS(=O)(=O)C1 (stereo not given) returned PrP 5UTR inh -4.6, RN4220 kill 3.3, Mtb hypoxia inh 0.5, Autofluor counter 23914*, Sa ugtP lethal 2.2 and Mtb hypoxia inh growth 2.1.
O=S1(=O)CC(NCc2ccccc2)C(Nc2ccc(Cl)cc2)C1 (stereo not given) was read as PrP 5UTR inh -28.5, RN4220 kill -1.0, BJeLR lethal -0.6, Mtb hypoxia inh 3.4, Autofluor counter 3667, Sa ugtP lethal 4.3 and Mtb hypoxia inh growth 2.0.
`Cc1ccc(S(=O)(=O)N2CCOCC2)cc1NC(=O)COC(=O)CNC(=O)c1ccc(C(C)(C)C)cc1` gave PrP 5UTR inh -16.8, RN4220 kill 7.0, BJeLR lethal 5.2, Mtb hypoxia inh 7.3, Autofluor counter 2029, Sa ugtP lethal 4.7 and Mtb hypoxia inh growth -2.8.
CCOc1ccccc1OCCC(=O)OCC(=O)Nc1c(C)nn(-c2ccccc2)c1C was read as PrP 5UTR inh -17.6, RN4220 kill 1.6, BJeLR lethal 7.8, Mtb hypoxia inh 1.3, Autofluor counter 5187, Sa ugtP lethal 10.4 and Mtb hypoxia inh growth 7.4.
For COc1cc(NC(=O)CSc2nnnn2Cc2ccccc2)cc(OC)c1 the results were PrP 5UTR inh -3.0, RN4220 kill -0.7, BJeLR lethal -7.2, Mtb hypoxia inh 14.3, Autofluor counter 3204, Sa ugtP lethal 7.4 and Mtb hypoxia inh growth 4.6.
For Cc1cnc(NC(=O)COc2ccc3c(c2)CCC3)s1 the results were PrP 5UTR inh -73.4, RN4220 kill 3.7, BJeLR lethal -10.4, Mtb hypoxia inh 15.0, Autofluor counter 6049, Sa ugtP lethal 1.2 and Mtb hypoxia inh growth 12.8.
C/C(N)=C(/C#N)C(=O)CSc1nnc(-c2ccc3c(c2)OCO3)o1 was read as PrP 5UTR inh -53.7, RN4220 kill 11.5, BJeLR lethal -15.1, Mtb hypoxia inh 19.3, Autofluor counter 10579, Sa ugtP lethal -6.9 and Mtb hypoxia inh growth 10.6.
For O=C(Cn1cnc2c(nnn2Cc2ccc(F)cc2)c1=O)NCc1ccc(F)cc1 the results were PrP 5UTR inh -16.3, RN4220 kill 3.9, BJeLR lethal 0.8, Mtb hypoxia inh -1.0, Autofluor counter 2116, Sa ugtP lethal 1.4 and Mtb hypoxia inh growth -1.3.
For CC(OC(=O)Cc1c[nH]c2ccccc12)C(=O)Nc1ccccc1[N+](=O)[O-] (stereo not given) the results were PrP 5UTR inh -12.4, RN4220 kill 9.6, BJeLR lethal -6.3, Mtb hypoxia inh -0.3, Autofluor counter inconclusive, Sa ugtP lethal -4.3 and Mtb hypoxia inh growth 7.9.
Screening CCOC(=O)c1cc(-c2ccc(C)c([N+](=O)[O-])c2)nc2c1c(=O)n(C)c(=O)n2C returned RN4220 kill -2.1, BJeLR lethal -10.4, Mtb hypoxia inh 14.4, Sa ugtP lethal 11.5 and Mtb hypoxia inh growth -2.2.
COc1cccc(C(=O)Nc2cc3c(cc2C(C)=O)OCCO3)c1 was read as PrP 5UTR inh -27.7, RN4220 kill 5.5, BJeLR lethal 1.1, Mtb hypoxia inh 13.4, Autofluor counter 7712, Sa ugtP lethal 8.3 and Mtb hypoxia inh growth 2.9.
CCC(=O)Nc1nc(CC(=O)Nc2ccccc2OC)cs1 was read as PrP 5UTR inh -5.7, RN4220 kill -4.0, BJeLR lethal -0.9, Autofluor counter 4517 and Sa ugtP lethal -2.1.
O=C(NCC1COc2ccccc2O1)C1CCN(S(=O)(=O)c2ccccc2)CC1 (stereo not given) was read as PrP 5UTR inh -3.0, RN4220 kill 3.1, Mtb hypoxia inh -0.8, Autofluor counter 5409, Sa ugtP lethal 4.9 and Mtb hypoxia inh growth 4.7.
CCC(CC)NC(=O)c1cc([N+](=O)[O-])ccc1N1CCOCC1 was read as PrP 5UTR inh -0.6, RN4220 kill 3.9, BJeLR lethal 7.6, Mtb hypoxia inh 11.3, Autofluor counter 2025, Sa ugtP lethal 5.0 and Mtb hypoxia inh growth 7.6.
CC(C)c1ccc(NC(=O)COc2ccc(C3SCCS3)cc2)cc1 was read as PrP 5UTR inh -15.7, RN4220 kill -0.5, BJeLR lethal -0.9, Mtb hypoxia inh -18.6, Autofluor counter 4040, Sa ugtP lethal 1.3 and Mtb hypoxia inh growth -17.8.
Cc1ccc(NS(=O)(=O)c2ccc(NN=Cc3ccccc3OCC(=O)O)c([N+](=O)[O-])c2)c(C)c1 was read as RN4220 kill -3.6, Mtb hypoxia inh 17.8, Sa ugtP lethal 4.0 and Mtb hypoxia inh growth 4.8.
Screening Cc1nn(S(=O)(=O)c2ccc(F)cc2)c(C)c1S(=O)(=O)N1CCOCC1 returned PrP 5UTR inh -13.9, BJeLR lethal 3.3 and Autofluor counter 5915.
COc1ccc(CCNC(=O)c2ccc3c(c2)NC(=O)C(N2CCOCC2)S3)cc1OC (stereo not given) was read as PrP 5UTR inh -16.8, RN4220 kill -9.7, BJeLR lethal -0.6, Mtb hypoxia inh 7.5, Autofluor counter 3709, Sa ugtP lethal 0.1 and Mtb hypoxia inh growth 2.8.
`O=C(NCC1CCCCC1)c1cccc(S(=O)(=O)N2CCCC2)c1` gave PrP 5UTR inh -3.5, RN4220 kill -2.2, Mtb hypoxia inh 3.5, Autofluor counter 6483, Sa ugtP lethal 5.4 and Mtb hypoxia inh growth 5.3.
Screening COc1cccc(C2=NOC(C(=O)Nc3ccc(C(C)=O)cc3)C2)c1 (stereo not given) returned PrP 5UTR inh -43.0, RN4220 kill 2.3, BJeLR lethal -4.2, Mtb hypoxia inh 0.3, Autofluor counter 8763, Sa ugtP lethal 2.3 and Mtb hypoxia inh growth -1.0.
Cc1ccc(/C=C(\C#N)C(=O)NCC2CCCO2)o1 (stereo not given) was read as PrP 5UTR inh -5.5, RN4220 kill 2.9, BJeLR lethal -3.3, Mtb hypoxia inh 9.4, Autofluor counter 3642, Sa ugtP lethal -0.4 and Mtb hypoxia inh growth 0.0.
`NC(=O)c1ccc(NC(=O)CNCc2ccccc2Cl)cc1` gave PrP 5UTR inh -1.5, RN4220 kill 3.0, BJeLR lethal -10.7, Mtb hypoxia inh -7.4, Autofluor counter 3632, Sa ugtP lethal -4.5 and Mtb hypoxia inh growth 4.6.
`Cc1oc(N=Cc2ccc(Cl)cc2)c(C#N)c1C` gave RN4220 kill -7.8, Mtb hypoxia inh 6.0, Sa ugtP lethal -6.5 and Mtb hypoxia inh growth -3.4.
`CCOC(=O)c1cn(-c2ccc([N+](=O)[O-])cc2)c2cc(Cl)c([N+](=O)[O-])cc2c1=O` gave PrP 5UTR inh -14.1, RN4220 kill 2.8, BJeLR lethal -3.1, Mtb hypoxia inh 5.1, Autofluor counter 2233, Sa ugtP lethal -2.0 and Mtb hypoxia inh growth 7.9.
